Assay outcomes as filed in PubChem.
Ecoli rRNA inh: inhibitors of bacterial rRNA selective over humanized ribosomes | E. coli WT GFP vs humanized-ribosome RFP mutants, fluorescence, 24 h; stronger effect = lower value; DMSO median 0, no signal -100 | 1.6% of 350,000 active | GFP signal change (wild-type ribosome), % (test concentration not listed) | AID 720706;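 active = significant combined selectivity score with lowered wild-type GFP, culture density cut under 30%, mutant RFP and density less affected; inactive = any of these conditions unmet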; also: one replicate is shown; some compounds called inactive have numbers as strong as hits
LANA-H2B inh: blocks KSHV LANA binding to histone H2A/H2B; 0.6% of 320,000 active; cell-free LANA-H2A/H2B peptide, fluorescence polarization; inhibition, % (no concentration beside the values); Q9QR71; AID 2629; in the data active = inhibition mostly above about 10%, no sharp cut-off; inactive = mostly below about 6.7%;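 also: stock transfer was 7.5 nL into about 10 µL; 0% = median of vehicle wells and 100% = median of positive control wells; one replicate is shown; the record names a cut of 25% in any replicate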
Target sequence (Q9QR71 whole entry, looked up): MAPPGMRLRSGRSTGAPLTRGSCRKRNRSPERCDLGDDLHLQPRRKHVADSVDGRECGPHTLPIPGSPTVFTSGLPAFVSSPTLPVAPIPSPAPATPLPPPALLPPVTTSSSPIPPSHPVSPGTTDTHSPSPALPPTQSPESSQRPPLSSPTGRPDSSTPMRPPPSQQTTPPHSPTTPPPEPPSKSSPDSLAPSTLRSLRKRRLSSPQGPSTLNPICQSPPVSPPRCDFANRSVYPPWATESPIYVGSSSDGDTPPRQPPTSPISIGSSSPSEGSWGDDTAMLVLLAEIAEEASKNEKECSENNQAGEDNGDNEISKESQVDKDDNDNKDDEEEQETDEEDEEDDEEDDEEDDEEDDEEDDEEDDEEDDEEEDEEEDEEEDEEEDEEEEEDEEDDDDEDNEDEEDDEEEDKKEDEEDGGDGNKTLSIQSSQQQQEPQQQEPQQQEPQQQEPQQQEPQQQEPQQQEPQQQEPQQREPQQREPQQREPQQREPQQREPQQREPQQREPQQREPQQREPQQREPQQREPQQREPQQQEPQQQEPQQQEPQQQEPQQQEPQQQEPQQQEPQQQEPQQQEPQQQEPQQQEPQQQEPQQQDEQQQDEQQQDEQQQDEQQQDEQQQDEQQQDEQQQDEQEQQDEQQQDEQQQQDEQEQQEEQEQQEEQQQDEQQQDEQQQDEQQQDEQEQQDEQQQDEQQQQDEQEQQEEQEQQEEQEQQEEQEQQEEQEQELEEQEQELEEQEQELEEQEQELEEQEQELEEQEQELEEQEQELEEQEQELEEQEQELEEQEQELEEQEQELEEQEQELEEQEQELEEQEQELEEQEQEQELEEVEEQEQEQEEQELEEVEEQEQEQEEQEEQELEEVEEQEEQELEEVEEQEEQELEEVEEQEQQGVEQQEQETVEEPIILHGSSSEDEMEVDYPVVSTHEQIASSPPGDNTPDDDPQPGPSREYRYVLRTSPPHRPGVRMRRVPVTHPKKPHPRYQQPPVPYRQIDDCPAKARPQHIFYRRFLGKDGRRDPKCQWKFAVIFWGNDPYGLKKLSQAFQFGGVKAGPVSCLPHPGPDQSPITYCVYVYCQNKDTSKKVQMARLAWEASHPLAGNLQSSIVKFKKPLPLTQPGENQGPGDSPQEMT
Beta cell apopt: beta cell apoptosis inhibition | INS-1E cytokine-induced death, ATP luminescence, 48 h; percent of positive-control rescue, neutral wells zero | protection from apoptosis, % (test concentration not listed) | 0.8% of 300,000 active | AID 435005;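 active = all replicates at 75% or more, or half of them and the mean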;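 also: 0% = cytokine-treated negative control wells and 100% = positive control rescue; higher means more ATP so stronger rescue from cytokine killing; wells of about 40 µL received 100 nL stock; the first replicate is given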
Bfl-1 A1 inh: inhibitors of the anti-apoptotic protein A1, read as caspase activation; MEF A1-2A-BIM cells, Caspase-Glo 3/7 luminescence, 3 h; percent of clofoctol response, vehicle zero; caspase activation, % (concentration not given with the values); 0.066% of 330,000 active; AID 2462;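 active = over half of replicate activation scores above 10%, or exactly half above 10 with the replicate mean above 10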;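 also: wells of about 30 µL received 50 nL stock; many hits fall short of the cut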
T cruzi repl: blocks replication of Trypanosoma cruzi; T. cruzi beta-gal in NIH3T3, luminescence, 90 h; inhibition, % (test concentration not listed); 1.4% of 300,000 active;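 active = mean inhibition across valid replicates above about 55%, limit read from the data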;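 also: signal also drops with host cell toxicity which is not excluded here; 0% = plate median of DMSO wells and 100% = zero luminescence signal; higher percent means less beta-gal luminescence so fewer parasites; stock transfer was 50 nL into about 50 µL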
ALR H2O2 inh: human ALR oxidase inhibition via reduced H2O2 | AID 485317 | 3.8% of 290,000 active | purified ALR, DTT oxidation, H2O2 HRP-luminol luminescence | inhibition, % (no concentration beside the values) | P55789;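 active = mean and each replicate at 75% or more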;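 also: stock transfer was 7.5 nL into about 7.5 µL; 0% = neutral wells and 100% = wells with inactivated enzyme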
Calb FLC: C. albicans growth modulation with fluconazole | C. albicans CaCi-2 (fluconazole-resistant clinical isolate) + fluconazole, Alamar Blue growth, 48 h | growth inhibition, % (test concentration not listed) | 0.57% of 300,000 active;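 active = most replicates above 75%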;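 also: all wells also contain fluconazole at 8 µg/ml as a sub-toxic cotreatment; 0% = median of DMSO wells and 100% = median of geldanamycin control wells; wells of about 8 µL received 7.5 nL stock; the first replicate is given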
B2AR ag: agonists of human beta-2 adrenergic receptor inducing internalization. Am2.2-beta2AR cells, FAP receptor internalization, flow cytometry; reference of the scale not given here. response, % (test concentration not listed). 0.43% of 340,000 active;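 active = response above a set limit, near 3 SD of response in nonfluorescent compounds, cut at about 42% in these data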;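 also: stock transfer was 100 nL into about 11 µL; a reference agonist was the positive control; negative values mostly stem from fluorescent compounds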
Ecoli rRNA inh OD600: further read-out of Ecoli rRNA inh, marked with its call; OD600 change, %; measured here: OD600 growth;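 optical density of the mix in the first replicate; 0 = DMSO median and -100 = no signal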
Ecoli rRNA inh RFP: second read-out of Ecoli rRNA inh, no call of its own (marks repeat the call); RFP signal change, %; measured here: RFP humanized mutant strains;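 first replicate; 0 = DMSO median and -100 = no signal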
* = called active by the depositor; . = not tested or not shown; & = joins results of further samples. An excerpt; the hit share may differ from the screen's.

mol,Ecoli rRNA inh,Ecoli rRNA inh OD600,Ecoli rRNA inh RFP,LANA-H2B inh,Beta cell apopt,Bfl-1 A1 inh,T cruzi repl,ALR H2O2 inh,Calb FLC,B2AR ag
O=C(Nc1nc(-c2ccc(Cl)s2)cs1)c1ccccc1,.,.,.,3.0,0,-0.3,23,-6,-23,6
CC(NC(=O)c1cc2ccccc2o1)C(=O)O (stereo unspecified),.,.,.,4.8,-6,0.2,.,0,-7,0
Cc1nc(SCc2ccccc2C#N)n[nH]1,1,6,1.9,2.4,0,1.8,-15,-1,7,-11
Cc1ccc(-c2cn3cccnc3n2)cc1NC(=O)c1ccc(Br)o1,.,.,.,-2.3,-1,1.0,-8,-1,-14,0
CCOC(=O)N1CCN(C(=O)CN(c2ccc(OCc3ccccc3)cc2)S(C)(=O)=O)CC1,.,.,.,-3.1,-6,-0.3,-1,.,9,-2
Cc1oc(-c2ccoc2)nc1CN(CC1CCC(=O)N1)C(C)C (stereo unspecified),.,.,.,1.7,-9,-0.2,-21,-12,-10,-4
COc1ccc(C2c3c(n[nH]c3C)CC(C)(O)C2C(C)=O)cc1OC (stereo unspecified),.,.,.,10*,-3,0.3,3,-10,-5,3
CC(C)NC(=O)c1cc(-n2cnnc2)ccc1Cl,.,.,.,0.6,-4,-0.3,4,-4,5,-8
CCCn1c(N)c(C(=O)CSc2nnc(C3CC3)n2Cc2ccccc2)c(=O)[nH]c1=O,.,.,.,-5.2,-4,1.0,-2,-11,11,0
CCOc1ccc(N(CC(=O)NCc2ccco2)C(=O)CCC(=O)Nc2nccs2)cc1,11,4,-2.9,1.3,-1,-0.1,3,-2,6,-3
COc1ccccc1OCc1nnc(SCC(=O)N2CCCCC2)o1,-2,-7,-3.9,.,.,.,6,.,-9,-1
CCN(CC)c1ccc(/C=N/NC(=O)CNC(=O)C2COc3ccccc3O2)c(O)c1 (stereo unspecified),-22,-44,-1.8,10,99*,-0.1,63*,62,89*,15
O=C(NC(=S)NCCc1ccccc1)C1CCCCC1,.,.,.,0.6,3,-0.2,13,-1,-22,-1
Cc1ccnc(N2C(=O)CSC2c2ccc(Cl)cc2)c1 (stereo unspecified),.,.,.,0.2,-6,0.6,-12,-8,-32,-1
O=c1ccccn1Cc1c(F)cccc1Cl,.,.,.,-0.7,-6,-0.3,-11,-41,-2,3
COc1cc(/C=C2/C(=O)N=C(N)N2C)cc(OC)c1OC,.,.,.,-2.3,-2,2.7,-11,-15,-4,-1
NC(=O)CSc1ccc(S(=O)(=O)N2CCCCC2)cn1,11,4,-0.6,4.0,-1,-0.6,.,-6,.,3
CCOC(=O)N1CCC(Nc2c(Nc3ccc(C)c(C)c3)c(=O)c2=O)CC1,.,.,.,-2.5,23,1.1,10,-11,-15,12
O=C(/C=C/c1ccc(S(=O)(=O)N2CCOCC2)cc1)NC(=S)NCCCn1ccnc1,11,7,2.2,4.4,-40,-1.1,-6,25,5,0
CCc1ccccc1NC(=O)N[C@H](C(=O)O)C(C)CC (stereo partly specified),.,.,.,-3.1,-2,0.3,-25,-3,-11,-11
CCC(C)NC(=O)C1CCC(=O)N1CCc1ccccc1 (stereo unspecified),22,10,2.4,1.0,0,0.4,-7,-5,-3,3
COc1ccc2[nH]cc(CCNC(=O)C3CC(=O)N(c4ccc(Cl)cc4)C3)c2c1 (stereo unspecified),-24*,-14*,2.6*,-2.2,0,0.9,13,1,-5,9
COC(=O)CCNS(=O)(=O)c1ccc2ccccc2c1,4,16,-1.1,-5.0,-4,-0.1,-7,-22,0,-2
Cc1ccc(F)c(NC=C2C(=O)OC(C)(C)OC2=O)c1,1,6,-0.6,-2.3,0,-0.3,-19,-9,-2,-3
CCOc1cc(C(C(=O)NCC2CCCO2)N(C(=O)Cn2nnc3ccccc32)c2ccccc2OC)ccc1O (stereo unspecified),3,0,-0.5,-3.2,3,-0.7,-5,.,-9,2
O=C(CCN1CCN(c2ccccc2)CC1)N/N=C/c1ccc(O)c(O)c1O,-3,8,1.2,.,.,.,-6,.,114*,2
COC(=O)c1ccccc1NC(=O)C1CCCN(S(=O)(=O)c2ccc(OC)cc2)C1 (stereo unspecified),.,.,.,-5.3,7,0.1,-6,0,-5,1
CC(=O)c1ccc(NC(=O)c2c(C)nn(-c3ccccc3)c2Cl)cc1,14,13,1.4,-0.9,7,0.9,0,-4,13,18
COc1ccc(S(=O)(=O)N(C)CC(=O)N2CCN(C)CC2)cc1Cl,5,0,-0.8,-2.9,-9,0.2,3,3,1,36
Cc1cc(Br)cc(Cl)c1OCC(=O)N1CCN(C(=O)c2ccco2)CC1,-8,-13,-2.0,-10,-2,-0.2,.,6,.,-9
O=C(N/N=C/c1ccc[nH]1)c1ccc([N+](=O)[O-])cc1,8,-14,-4.3,0.3,3,0.9,-16,-3,-16,-1
COc1cc(CN2CCCCCC2)cc(Br)c1O,15,2,0.9,-3.6,-5,0.8,-14,58,1,-1
CC(=O)Nc1ccc(S(=O)(=O)NNc2cccc(C)c2)cc1,-2,12,-1.1,-2.6,-7,-0.8,-8,99*,-17,7
CCOC(=O)c1cc(-c2ccc(F)cc2)n(CC(=O)Nc2nccs2)c1C,-29,-43,-7.1,.,.,.,7,.,-5,4
COc1ccc(N2C(=O)/C(=C\c3ccco3)N=C2SCC(=O)NC(C)(C)C)cc1Cl,13,13,2.5,.,-8,0.3,-14,.,-1,10
O=C1C=C(O)C(n2cncn2)C(c2ccc(F)cc2)C1 (stereo unspecified),16,11,2.4,-9.8,2,-0.7,-13,-6,25,1
CCN(CC)C(=O)CN1CCN(Cc2ccc3c(c2)OCO3)CC1,7,8,-2.3,-1.7,-4,0.8,9,.,-7,3
CCOC(=O)C1CCN(c2ccc([N+](=O)[O-])cc2)CC1,-14,-18,-3.3,-4.0,0,-2.0,-18,-26,3,4
CCOC(=O)c1ccc(N2C(=O)C(O)=C(C(C)=O)C2c2ccccc2)cc1 (stereo unspecified),.,.,.,1.1,-4,-0.4,-18,3,-11,-4
Fc1ccc(CNc2nc(-c3ccco3)cc(C(F)(F)F)n2)cc1,.,.,.,2.0,-7,-0.5,1,40,-6,-1
CC(C)[C@H](NC(=O)c1cc2cc(Cl)ccc2n1C)C(=O)N[C@@H](C(=O)O)c1ccccc1,-2,-1,1.6,-5.4,-13,0.0,-3,-2,10,3
COC(=O)c1ccc(NC(=O)Cn2nc(-c3ccncc3)nc2SCC(=O)Nc2nccs2)cc1,.,.,.,3.7,2,0.1,11,-4,-2,-14
CC1OC(OC2C(Oc3c(-c4ccc(O)cc4)oc4cc(O)cc(O)c4c3=O)OC(COC3O[C@@H](C)[C@H](O)[C@@H](O)C3O)C(O)C2O)C(O)C(O)C1O (stereo partly specified),5,1,1.9,-15,1,-0.9,-23,6,-2,-3
Cc1cc(OCCn2cnc3ccccc3c2=O)ccc1[N+](=O)[O-],-4,-13,-9.9,1.5,7,-0.4,4,1,25,-8
CCOC(=O)C1=C(C)N(C)C(C)=C(C(=O)OCC)C1c1ccsc1,12,6,2.6,1.1,.,0.1,8,-10,-14,6
Fc1cccc(CSc2ccc3nnc(-c4cccnc4)n3n2)c1,10,7,-0.3,-5.3,9,0.2,12,5,-43,-4
Cc1ccc(C(=O)c2ccccc2C(=O)OCC(=O)NC(=O)NC(C)(C)C)cc1,-1,-8,0.5,3.2,0,0.0,-4,.,-5,0
COC(=O)c1cc(OC)c(OC)cc1NC(=S)N1CCOCC1,16,6,1.8,.,.,.,0,.,1,-5
O=C(N[C@@H](Cc1ccccc1)C(=O)O)c1c(F)c(F)c(F)c(F)c1F,20,8,-7.6,0.3,-5,1.1,-15,-4,1,-1
Cc1ccc(-c2nnc(NCc3nc4ccccc4[nH]3)c3ccccc23)cc1S(=O)(=O)N1CCOCC1,.,.,.,-3.1,17,0.0,11,-4,-2,32

Continuation:
mol,Ecoli rRNA inh,Ecoli rRNA inh OD600,Ecoli rRNA inh RFP,LANA-H2B inh,Beta cell apopt,Bfl-1 A1 inh,T cruzi repl,ALR H2O2 inh,Calb FLC,B2AR ag
COCCn1cnc2cc(C)c(C)cc21,.,.,.,-0.4,-8,0.4,-11,.,-8,-2
Cc1ccc2occ(/C=N/NC(=O)c3ccccc3O)c(=O)c2c1,-6,5,-1.1,0.2,42,-0.1,7,8,79*,7
C[C@H](CO)N1C[C@H](C)[C@@H](CN(C)S(=O)(=O)c2cn(C)cn2)Oc2c(NS(=O)(=O)c3ccccc3)cccc2C1=O,2&7,16&6,-1.5&1.2,.,-2,0.0,.,0,.,-5
CC(=O)c1ccc2noc(-c3ccccc3)c2c1,-7,-2,2.2,-3.3,-11,1.0,10,-4,6,10
O=[N+]([O-])c1ccccc1N/N=C/c1cc2ccccc2nc1Cl,.,.,.,-1.0,-5,-0.6,-20,-18,-22,-6
COc1ccc(CN(C(=O)c2cc3ccccc3oc2=O)C2CCS(=O)(=O)C2)cc1OC (stereo unspecified),22,12,0.7,-0.7,1,0.5,-15,0,-14,-11
COc1cccc(N2CCN(Cc3nc4ccccc4c(=O)[nH]3)CC2)c1,.,.,.,-3.7,.,0.0,8,23,-14,-3
C=CCN=C(CC)C1=C(O)CCCC1=O,.,.,.,-1.3,-12,1.6,-11,-7,2,2
C=CCNC(=O)c1ccc2c(c1)S(=O)(=O)c1ccccc1C2=O,1,-7,-2.8,-2.1,7,-0.1,-11,-3,10,-8
O=C1CCN(Cc2ccc([N+](=O)[O-])cc2)CCN1CCO,6,13,5.7,5.3,-3,-0.6,-13,0,0,2
COCCn1c(=S)[nH]c2cc(C(=O)NCCCN3CCOCC3)ccc2c1=O,6,4,-7.6,-1.3,-3,0.9,2,-2,34,-6
O=C(CN(C(=O)c1csnn1)c1cccc(F)c1)NCc1ccc2c(c1)OCO2,-3,4,0.0,1.5,-5,-0.2,-11,-4,-1,-1
CCOC(=O)c1sc(=NC(=O)C2CC2)n(C)c1C,-2,8,-0.1,-0.5,9,0.3,0,.,4,13
CCOC(=O)c1c(C)[nH]c(C)c1C(=O)COC(=O)Cc1n[nH]c(=O)c2ccccc12,8,6,2.7,-1.9,1,1.1,.,0,.,20
COc1ccccc1-c1ccc(=O)n(CC(=O)Nc2ccc(C(=O)N3CCCC3)cc2)n1,.,.,.,5.8,.,0.2,-2,.,-15,-1
COC(=O)c1ccc(/C=N/NC(=O)CC(=O)NC(C)C)cc1,7,11,-1.2,1.6,1,0.3,-16,1,-32,-8
O=C(Nc1nc2n(n1)C(c1ccc(Cl)cc1)CC(c1ccc(Cl)cc1)N2)c1ccco1 (stereo unspecified),.,.,.,-5.0,0,-2.5,-15,-5,20,.
O=C(OCc1ccc(Cl)cc1)c1ccccc1C(=O)c1ccccc1,.,.,.,-0.5,5,-0.4,4,-3,-4,1
COc1ccc(-c2noc(CN(C)S(=O)(=O)c3ccccc3)n2)cc1OC,.,.,.,8.8,5,-0.2,4,97*,10,-2
